AmpC inh no det: inhibitors of E. coli AmpC beta-lactamase without detergent; P00811; AmpC nitrocefin hydrolysis, absorbance 480 nm, no detergent; potencies from a single point are estimates; Potency, µM (doses to about 28.7 µM), for inactives: at the top dose activity change, negative = inhibition; 1.8% of 71,000 active; AID 585; active = falling curve, for most hits resting on a single point; inconclusive = weak or doubtful change; inactive = flat or rising curve; further: % of control where 0% means no effect; about half of the hits show no inhibition at the top dose; a quarter of the inactives give rising signals
Target sequence (P00811 whole entry, looked up): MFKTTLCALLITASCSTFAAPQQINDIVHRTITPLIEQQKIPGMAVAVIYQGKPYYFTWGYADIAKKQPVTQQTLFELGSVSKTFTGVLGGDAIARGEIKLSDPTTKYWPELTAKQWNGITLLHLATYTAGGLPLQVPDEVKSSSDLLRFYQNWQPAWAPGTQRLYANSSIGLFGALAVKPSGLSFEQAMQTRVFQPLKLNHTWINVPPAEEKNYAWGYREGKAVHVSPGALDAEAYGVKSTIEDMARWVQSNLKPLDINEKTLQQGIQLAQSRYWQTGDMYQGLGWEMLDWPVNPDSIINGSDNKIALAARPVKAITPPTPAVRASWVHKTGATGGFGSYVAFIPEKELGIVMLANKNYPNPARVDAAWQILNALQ
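AmpC, 20 mM phosphate pH 7.0; 15 min cpd preinc, RT; start with nitrocefin (800 uM stock); A480 kinetic read, 20 s intervals, 4 min. No-enzyme wells = negative control.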
Numbers without * were called inactive; ? = inconclusive; [ ] = another dose, or the depositor's remark. Potency means the concentration at half of the fitted maximal effect. Not all compounds are listed, so the mix of outcomes need not match the whole.

No.	compound	AmpC inh no det
1	Cc1cc(C(=O)Nc2ccc(C(=O)O)cc2)c(-c2ccccc2)o1	-20%
2	O=C(c1cnccn1)N1CCC2(CCCN(c3cccc(-c4ccccc4)c3)C2)CC1	146%
3	COc1ccc(C(=O)[C@H](Br)[C@H](Br)C(=O)O)cc1	1%[5.75 µM]
4	CCCn1c(N2CCN(S(=O)(=O)Cc3ccccc3)CC2)nc2ccccc21	34%
5	NC(=O)c1cc(N2C(=O)C3CC=CCC3C2=O)ccc1N1CCCCC1 (stereo not drawn)	16%
6	CCN(CC)c1ccc(C(=O)Nc2cccc(F)c2)cc1	-21%
7	Oc1ccc(C2NCc3ccccc3-n3cccc32)cc1Cl (stereo not drawn)	-8%
8	COCCn1c(C2CCCCC2)nc2sc3ccccc3c(=O)c2c1=O	64%
9	c1cncc(-c2noc(-c3ccco3)n2)c1	-5%
10	C=CCn1c(=O)c(C(=O)Nc2ccccc2O)c(O)c2ccccc21	8%
11	O=C(c1ccc(S(=O)(=O)N2CCOCC2)cc1)N1CCN(c2ccccc2)CC1	7%
12	c1nc2sc3c(c2c2nnnn12)CCCC3	-8%
13	CCOC(=O)Cn1nc(-c2ccc(C)cc2)ccc1=O	17%
14	O=C(C1CCC(=O)N1C1CCCCC1)N1CCC2(CC1)OCCO2 (stereo not drawn)	-18%
15	CCCn1c(SCC(=O)N2CCCC2)nc2c1c(=O)n(C)c(=O)n2C	8%

Some of the entries above in another layout.
[12] c1nc2sc3c(c2c2nnnn12)CCCC3
  AmpC inh no det = -8%

[13] CCOC(=O)Cn1nc(-c2ccc(C)cc2)ccc1=O
  AmpC inh no det = 17%

[14] O=C(C1CCC(=O)N1C1CCCCC1)N1CCC2(CC1)OCCO2 (stereo not drawn)
  AmpC inh no det = -18%

[15] CCCn1c(SCC(=O)N2CCCC2)nc2c1c(=O)n(C)c(=O)n2C
  AmpC inh no det = 8%

The main list resumes, starting 3 compounds before the break.
No.	compound	AmpC inh no det
13	CCOC(=O)Cn1nc(-c2ccc(C)cc2)ccc1=O	17%
14	O=C(C1CCC(=O)N1C1CCCCC1)N1CCC2(CC1)OCCO2 (stereo not drawn)	-18%
15	CCCn1c(SCC(=O)N2CCCC2)nc2c1c(=O)n(C)c(=O)n2C	8%
16	Cc1ccc(CNc2nc3ccccc3s2)s1	-3%
17	O=C(CN1CCCc2ccccc21)NCc1ccc2c(c1)OCO2	9%
18	Cn1cc(S(=O)(=O)CC(=O)Nc2ccc3c(c2)OCO3)c2ccccc21	-18%
19	CS(=O)CCC(NS(=O)(=O)c1ccccc1)C(=O)O (stereo not drawn)	-2%
20	COC(=O)N1CCC2(CCCN(c3cccc(-c4ccccc4)c3)C2)CC1	5%
21	CCc1ccc(-c2nc(CN3CCC(C(=O)N4CCN(c5ccccc5)CC4)CC3)c(C)o2)cc1	150%
22	N#CC1=C(C2CC2)CC(c2ccccc2)C(C#N)=C1N (stereo not drawn)	-15%
23	COc1cc(C)nc(N2CCCC(C(=O)NC3CCC(C)CC3)C2)n1 (stereo not drawn)	32%
24	CCCOCCOC(=O)c1[nH]c2c(c1C)C(=O)CC(c1cc(OC)ccc1OC)C2 (stereo not drawn)	16%
25	COc1ccccc1-c1nnc2sc(-c3cnccn3)nn12	7%
26	C(=C/c1ccccc1)/c1ccccc1	8%
27	O=C(Nc1ccc2c(c1)OCO2)N1CCN(C(=O)C2CCCO2)CC1 (stereo not drawn)	3%
28	N#Cc1cccc(-c2nc(Nc3ccncc3)c3ccccc3n2)c1	8%
29	COc1cccc(C2=NOC(C(=O)N3CCN(Cc4ccccc4)CC3)C2)c1OC (stereo not drawn)	122%
30	COc1ccc(NC(=O)C2CCN(c3cc(-c4ccccc4)nc4ncnn34)CC2)cc1OC	101%

Additional results:
No.	compound	AmpC inh no det
31	O=c1c(-c2ccc3c(c2)OCCO3)coc2cc(O)cc(O)c12	-22%
32	Cc1ccc(-c2noc(CCCC(=O)N3CCOCC3)n2)cc1	29%
33	Cc1ccc(N2CCN(C(=O)c3ccccc3)CC2)c(C)c1	28%
34	CCOC(=O)C1CCN(C(=O)COc2ccc(Br)cc2)CC1	37%
35	O=C1NC2(CCOc3ccccc32)C(=O)N1CC(=O)N(Cc1ccccc1)C1CCS(=O)(=O)C1 (stereo not drawn)	81%
36	CCOC(=O)CSc1nc(C)cc(=O)[nH]1	1%
37	CCOC(=O)CN(C(=O)CSc1nnc2c(n1)[nH]c1ccccc12)c1ccccc1	34%
38	COc1cccc(-c2nc(CS(=O)(=O)CC(=O)Nc3c(C)cccc3C)c(C)o2)c1	51%
39	NS(=O)(=O)c1ccc(CCNC(=O)c2cncc(Br)c2)cc1	-9%
40	O=S(=O)(/N=C(\c1ccccc1)N1CCOCC1)c1cccs1	2%
41	O=c1c2c3nc4ccccc4nc3n(CC3CCCO3)c2ncn1CCc1ccccc1 (stereo not drawn)	49%
42	CC(C)(C)NC(=O)C(c1ccco1)N(C(=O)Cn1nnc(-c2ccc(F)cc2)n1)c1ccccc1F (stereo not drawn)	78%
43	O=c1cc[nH]c2c(C(F)(F)F)cccc12	-2%
44	COc1ccccc1-c1ccc2ncnc(NC3CCNCC3)c2c1	23%
45	CC(=O)Nc1ccc(S(=O)(=O)N2CCN(Cc3ccncc3)CC2)cc1	-2%

Later entries:
No.	compound	AmpC inh no det
46	O=C1CC(C(=O)Nc2ccc(C(=O)N3CCOCC3)cc2)C2(CCCCC2)O1 (stereo not drawn)	14%
47	Cc1nc2nc[nH]n2c(=O)c1NC(=O)CCc1ccccc1	-11%
48	C=CCn1c(Cc2nc3ccccc3[nH]2)n[nH]c1=S	-9%
49	Cc1ccc(S(=O)(=O)N2CCCC(C(=O)NCc3ccccn3)C2)cc1 (stereo not drawn)	20%
50	O=C(Nc1ccccc1N1CCCC1)c1ccc(Br)o1	-6%
51	O=C(CSc1nc(Nc2ccccc2)nc(N2CCOCC2)n1)N1CCCC1	59%
52	COc1ccc(C(=O)N[C@H]2COC(C)(C)O[C@H]2c2ccccc2)cc1	32%
53	c1cc(CSc2nnc(-c3ccc4c(c3)OCO4)o2)ccn1	9%
54	CCCC[C@@H]1C[C@H]1C(NS(=O)(=O)c1cccc2cccnc12)c1ccc(-c2ccccc2)cc1 (stereo partly drawn)	-3%
55	CC(C)C(=O)c1cn(CC(=O)NCC2CCCO2)c2ccccc12 (stereo not drawn)	15%
56	Cc1cc(C)nc(N2CCCC(C(=O)NC(C)CCc3ccco3)C2)n1 (stereo not drawn)	66%
57	CCN(C(=O)COc1ncnc2ccc(Br)cc12)C1CCS(=O)(=O)C1 (stereo not drawn)	19%
58	N#Cc1nc(COc2ccc(F)cc2)oc1NCCN1CCOCC1	26%
59	CCOC(=O)c1cc(C)n(-c2c(C)n(C)n(-c3ccccc3)c2=O)c1C	6%
60	Brc1ccc(-c2nnc(-c3ccccc3Br)o2)cc1	-2%

(continued)
No.	compound	AmpC inh no det
61	CCC(=O)N1CCN(CCN=CC2=C(O)CC(C)(C)CC2=O)CC1	15%
62	O=C(OCC(=O)N1CCCC1)c1ccccc1OCc1ccccc1	36%
63	Clc1ccccc1-c1nc(NCc2cccnc2)c2ccccc2n1	20%
64	CCOc1ccc(C2=CS/C(=C(\C#N)c3nnc4n3CCCCC4)N2CC)cc1	82%
65	CC1(C)CC(=O)C2=C(C1)NC(SCC(=O)Nc1ccccc1)=C(C#N)C2c1ccco1 (stereo not drawn)	51%
66	N#C/C(=C\C1CC=CCC1)c1nc2ccccc2[nH]1 (stereo not drawn)	?
67	CCOC(=O)C1=C(C)N(C)C2(C)CC1c1ccccc1O2 (stereo not drawn)	20%
68	O=C(Cn1nnc2ccccc2c1=O)NC1CCCc2ccccc21 (stereo not drawn)	-21%
69	COC(=O)[C@@]1(Cc2ccc(OC)cc2)[C@H]2c3cc(C(=O)N(C)C)n(Cc4ccc(OC(F)(F)F)cc4)c3C[C@H]2CN1C(=O)c1ccccc1	118%
70	Oc1ccc(-c2nc3ncccn3c2Nc2ccc3c(c2)OCCO3)cc1	16%
71	Cn1cccc1C(=O)NS(=O)(=O)c1ccccc1Cl	-5%
72	CN(c1ccc(C(=O)NCc2ccncc2)cc1)S(C)(=O)=O	11%
73	Cc1cccc(N(Cc2nnc3n2CCCCC3)C(=O)Nc2ccccc2)c1	26%
74	C[N+](C)([O-])Cc1cc(-c2ccccc2)ccc1O	-5%[5.75 µM]
75	CC(C)=C1C(=O)C(c2ccccc2)=C2CN3C(=O)N(CCc4ccccc4)C(=O)[C@]3(C)[C@H]21	27%

Other records follow:
No.	compound	AmpC inh no det
76	CC(C)(C)n1c(O)c(C=Nc2ccc3c(c2)CCC3)c(=O)[nH]c1=O	20%
77	COC(=O)c1ccccc1NC(=O)NC1CCN(Cc2ccccc2)CC1	24%
78	Cc1ccc(C(=O)[C@@H]2[C@@H]3[C@@H](C(=O)[C@@H]4OC[C@H]3O4)[C@@H]3C=Cc4ccccc4N23)cc1	101%
79	O=C(Nc1nnc(CCc2ccccc2)s1)c1ccco1	-13%
80	Cc1cc(OCC(=O)N2CCOCC2)ccc1NC(=O)C1CCCCC1	6%
81	CCc1c(C)nc2cc(-c3ccc(OC)cc3)[nH]n2c1=O	-14%
82	C=CCn1c(SCC(=O)Nc2cc(C)ccc2C)nnc1-c1cnccn1	18%
83	COc1ccc(C(=O)NCCn2ccc3ccccc32)c(OC)c1	62%
84	Cc1nc(C)c(-c2csc(NCc3ccccc3)n2)s1	24%
85	COc1ccc(C(=O)N2CCC3(CCN(C(=O)Nc4cccc(C#N)c4)CC3)CC2)cc1	37%
86	CCOC(=O)c1ccc(NS(=O)(=O)c2cc(-c3nnnn3CC)ccc2OC)cc1	17%
87	COc1ccc(C2C(C(=O)NCc3ccco3)CCC(=O)N2c2ccc(OC)cc2)cc1 (stereo not drawn)	48%
88	COc1ccc(O)c(C=Nc2cc(C)on2)c1	-10%
89	CC1Cc2ccccc2N1C(=O)CSc1nnc(-c2ccc(S(=O)(=O)N3CCCC3)cc2)o1 (stereo not drawn)	53%
90	O=S(=O)(NCc1cn2ccccc2n1)c1cc(F)ccc1F	-2%

New compounds follow
No.	compound	AmpC inh no det
91	CN(CC(=O)O)Cc1c[nH]c2ccccc12	-5%[5.75 µM]
92	O=c1c2ccccc2nc(-c2ccco2)n1-c1ccccn1	-1%
93	COC(=O)c1c(-c2cccs2)csc1NC(=O)CN1CCOCC1	146%
94	O=C(O)[C@@H]1CS[C@@]2(CCCN(Cc3ccccc3)C2)N1	0%[5.75 µM]
95	CCC(=O)N1CCc2cc(Br)cc(S(=O)(=O)CCC(=O)NCC3CCCO3)c21 (stereo not drawn)	16%
96	COCCCNC(=O)CCc1nc2cccnc2n1Cc1ccc(OC)cc1	31%
97	CCOC(=S)SCC(=O)O	2%[5.75 µM]
98	CCOc1ccccc1-c1nc(-c2ccc(NC(=O)Cc3ccccc3OC)cc2)no1	6%
99	CCOc1ccccc1NC(=O)C1CCCN(S(=O)(=O)c2cccc3nsnc23)C1 (stereo not drawn)	30%
100	Cc1nc2cc(CO)ccc2s1	-16%
101	Cc1ccc2cccc(S(=O)(=O)Nc3c(C)n(C)n(-c4ccccc4)c3=O)c2n1	5%
102	CC(CCl)OC(C)CCl (stereo not drawn)	-4%
103	Cc1ccc(C)c(-c2nnc(OCC(=O)Nc3cc(C)on3)c3ccccc23)c1	36%
104	O=C(CN1C(=O)NC2(CCSC2)C1=O)N1CCN(c2ccc(F)cc2)CC1 (stereo not drawn)	31%
105	Nc1cc(OC(=O)c2cccs2)nn1S(=O)(=O)c1ccccc1	?

Individual results from the list:
Value for compound 100 under AmpC inh no det: -16%
Value for compound 92 under AmpC inh no det: -1%
Value for compound 98 under AmpC inh no det: 6%

The results go on:
No.	compound	AmpC inh no det
106	COc1ccc(NC(=O)CSc2nc3c(c(=O)n2-c2ccccc2OC)SCC3)cc1	64%
107	O=S(=O)(Cc1ccccc1)Nc1ccc(S(=O)(=O)NCC2CCCO2)cc1 (stereo not drawn)	5%
108	Cc1c(CCC(=O)O)c(=O)oc2cc3occ(-c4ccc(F)cc4)c3cc12	20%
109	COc1cc(C(=O)NCc2cn3cccc(C)c3n2)cc(OC)c1OC	15%
110	CN(C)c1ncnc2ccc(-c3cccc(NS(C)(=O)=O)c3)cc12	18%
111	O=C(CSc1nc2ccccc2[nH]1)N1CCCCC1	-2%
112	Cc1ccc(N(Cc2ccco2)C(=O)c2cccc(S(=O)(=O)N(C)C)c2)cc1	43%
113	CCN(C(=O)Cc1cccs1)c1nnc(-c2cc(OC)c(OC)c(OC)c2)s1	184%
114	Cc1ccn(C(=O)c2ccc(NC(=O)C3CCCCC3)cc2)n1	-3%
115	COc1ccccc1C(OC(=O)c1ccco1)C(=O)NC(C)(C)C (stereo not drawn)	25%
116	CC1CCCCC1NC(=O)CSc1nnc(COc2ccccc2Cl)o1 (stereo not drawn)	22%
117	COc1ccc(N2CCN(CCCNC(=O)CN3CCN(Cc4ccccc4C)C3=O)CC2)cc1	110%
118	CCN(C(=O)c1cc(Cl)ccc1OC)c1ccccc1	22%
119	O=C1CC(N2CCN(C/C=C/c3ccccc3)CC2)C(=O)N1Cc1cccs1 (stereo not drawn)	85%
120	CCOc1ccc(N(CC(=O)Nc2cccc(OC)c2)S(=O)(=O)c2c(C)noc2C)cc1	-17%
121	CCOC(=O)c1cc(NC(=O)c2cnccn2)cc(C(=O)OCC)c1	11%
122	O=C(c1ccccc1Oc1ccccc1)N1CCN(c2ccccc2)CC1	63%

High-throughput results: PubChem BioAssay, National Center for Advancing Translational Sciences (NCATS)
